# Anaer choline gr – choline-fed anaerobic bacterial growth inhibition. calls only. Gram-negative bacterium anaerobic choline minimal medium, absorbance growth; hits give low values; many inactives read as strong as hits in the columns shown. AID 1963822. 55,000 compounds, 0.2% hits;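 active = growth z-score on choline under -2 at 7 or 20 h with little or no fall on glycerol, limits in tiers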;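 note: stock transfer was 300 nL into about 50 µL; the organism is E. coli; final concentration not given here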
# Anaer choline gr early – further read-out of Anaer choline gr, marked with its call; z-score; measured here: choline growth z-score, timepoint 1;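 score of optical density at 7 h as mean of two plates; lower means less growth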
# Numbers without * were called inactive; i = inactive. A portion of the library; rates above refer to the full screens.
Molecule	Anaer choline gr	Anaer choline gr early
CN1C2CCCC1CC(NC(=O)c1nn(C)c3ccccc13)C2 (stereo not given)	i	0.03
Cn1nc(C(=O)N2CCOCC2)c2c1CCN(S(=O)(=O)c1cccc3nsnc13)C2	i	-0.2
CCc1nc(-c2csc(S(=O)(=O)N3CCC(C(=O)Nc4ccc(OC)cc4)CC3)c2)no1	i	0.96
COc1ccc(NC(=O)N2CCN(Cc3ccc4nccnc4c3)CC2)cc1	i	-0.29
CN(CC1CCCO1)C1CCN(C(=O)Cn2c(=O)oc3ccccc32)CC1 (stereo not given)	i	-0.19
CC1C[C@H]2[C@@H]3CC(F)C4=CC(=O)C=C[C@]4(C)[C@]3(F)C(O)C[C@]2(C)[C@@]1(O)C(=O)CO (stereo not given in full)	i	-0.07
Cc1ccc(N2CCN(C(=O)c3ccc(N4CCCS4(=O)=O)cc3)CC2)c(C)c1	i	-0.08
COc1cc(O)cc(C(=O)c2ccccc2)c1S(=O)(=O)O	i	0.31
Cc1cccc(NC(=O)NCCn2c(-c3ccc(F)cc3)nc3cccnc32)c1C	i	0.62
CCOC(=O)C1CCN(C(=O)c2cc(-c3ccncc3)n(-c3ccc(F)cc3)n2)CC1	i	-0.35
CCOC(=O)c1cn(CC(=O)Nc2ccc(C)cc2)c2cnccc2c1=O	i	0.18
O=C(CC1CCCC1)NCc1c(-c2ccccc2)nc2n1CCS2	i	-0.42
CCCn1c(=O)[nH]c2cc(-c3noc(/C=C/c4ccc(OC)c(OC)c4)n3)ccc21	i	0.24
CCC(CC)C(=O)Nc1cc(Cl)ccc1OCc1cc(=O)n2oc(C)cc2n1	i	-0.63
Cn1c(=O)c2nc(S(=O)(=O)CCC(=O)Nc3ccc(F)c(F)c3)n(C)c2n(C)c1=O	i	-1.3
CC(C)c1ccc(NC(=O)c2cccn3c(Cc4ccccc4)nnc23)cc1	i	0.69
O=C(CSc1nc2c(sc3ccccc32)c(=O)n1C1CCCCC1)NCc1ccccc1	i	1.4
Cc1ccc(-c2nc3sc(CCNC(=O)c4ccc(F)c(F)c4)c(C)n3n2)cc1	i	2.3
CC(=O)OCC(=O)[C@@]12N=C(C)O[C@@H]1C[C@H]1[C@@H]3CCC4=CC(=O)C=C[C@]4(C)[C@H]3[C@@H](O)C[C@@]12C	i	0.36
Cc1cccc(-c2noc(-c3nn(-c4ccccc4)c(=O)c4ccccc34)n2)c1	i	0.52

# Reprinted at random: three entries already listed, in no set order.
Molecule	Anaer choline gr	Anaer choline gr early
Cc1ccc(-c2nc3sc(CCNC(=O)c4ccc(F)c(F)c4)c(C)n3n2)cc1	i	2.3
Cc1cccc(-c2noc(-c3nn(-c4ccccc4)c(=O)c4ccccc34)n2)c1	i	0.52
CCOC(=O)c1cn(CC(=O)Nc2ccc(C)cc2)c2cnccc2c1=O	i	0.18

# Single records, from the list above. Screens in order: Anaer choline gr	Anaer choline gr early
# Cn1c(=O)c2nc(S(=O)(=O)CCC(=O)Nc3ccc(F)c(F)c3)n(C)c2n(C)c1=O in the list: i	-1.3
# O=C(CSc1nc2c(sc3ccccc32)c(=O)n1C1CCCCC1)NCc1ccccc1 in the list: i	1.4
# CCOC(=O)c1cn(CC(=O)Nc2ccc(C)cc2)c2cnccc2c1=O in the list: i	0.18
# Cc1cccc(-c2noc(-c3nn(-c4ccccc4)c(=O)c4ccccc34)n2)c1 in the list: i	0.52
# Cc1ccc(-c2nc3sc(CCNC(=O)c4ccc(F)c(F)c4)c(C)n3n2)cc1 in the list: i	2.3

# Continuation.
Molecule	Anaer choline gr	Anaer choline gr early
COc1ccc(C2CC(=O)C3=C(C2)Nc2onc(C)c2C3c2ccccc2)cc1OC (stereo not given)	i	-0.48
Cc1cc(C)cc(N(CC(=O)NC2CC2)S(=O)(=O)c2c(C)nn(C)c2C)c1	i	-0.04
COc1ccc(-n2nc(C(=O)Nc3cccc(Cl)c3)c(=O)n(C)c2=O)cc1	i	0.71
O=C(Nc1ccc2c(c1)OCO2)N1CCC(c2nc(-c3ccc(F)cc3)no2)CC1	i	-1
O=C(c1cnc2ccc(F)cc2c1S(=O)(=O)c1ccc(F)cc1)N1CCOCC1	i	-1
Cc1cccc(-c2noc(-c3ccccc3OCC(=O)Nc3nnc(C)s3)n2)c1	i	-0.07
Cn1c(CNS(=O)(=O)c2ccc(F)cc2)nc2cccnc21	i	-1.4
CCc1onc(C)c1C1CCCN1Cc1cc(Br)ccc1F (stereo not given)	i	1.3
O=C(NCC(c1cccnc1)N1CCc2ccccc2C1)C(=O)Nc1ccc2c(c1)OCCO2 (stereo not given)	i	-0.54
COc1ccc(NC(=O)C2CCCN(c3nc4ccccc4nc3C(F)(F)F)C2)cc1Cl (stereo not given)	i	1.7
O=C(NCCCN1CCN(c2ccc(F)cc2)CC1)C1CCCN(c2nc3cccnc3s2)C1 (stereo not given)	i	-0.81
O=C(Nc1cc(-c2ccsc2)no1)c1ccc(Cl)s1	i	0.34
CCc1ccc(COC(=O)c2nnn(-c3ccc(C)c(Cl)c3)c2C)cc1	i	1.5
COC(=O)c1ccccc1NC(=O)c1sc2ncnc(N3CCCCC3C)c2c1C (stereo not given)	i	0.67
Cc1ccc(CN2CCN(CC(=O)N3CCN(c4ccccn4)CC3)C(=O)C2=O)cc1	i	0.13
CN1[C@@H]2CC[C@H]1CC(OC(=O)[C@H](CO)c1ccccc1)C2 (stereo not given in full)	i	-0.07
Cc1noc(C)c1S(=O)(=O)N1CCCC1c1ccco1 (stereo not given)	i	-0.24
O=C(O)CN1C(=O)c2cccc3cccc1c23	i	-0.09
Fc1ccc(OCc2nnc3sc(-c4ccc(F)cc4)nn23)cc1	i	0.15
Cc1cc(C)cc(S(=O)(=O)N2CCN=C2N2CCN(c3ccccc3Cl)CC2)c1	i	-0.37
Cc1ccc(-c2cncc(C(=O)NC(C)(C)C)c2)cc1	i	-0.55
Cc1cc(CNC(=O)NCC(C)C)c(C)n1-c1cccc(Cl)c1	i	0.32
CCC(C(=O)N1CCN(c2ccccn2)CC1)n1nc(C)c2nn(-c3ccccc3)c(C)c2c1=O (stereo not given)	i	0.91
O=c1ccn(-c2cccc(F)c2)nc1-c1nc(-c2cccc(F)c2)no1	i	-0.7
CCCS(=O)(=O)Nc1ccc(Nc2nc(C)cc(N(CC)CC)n2)cc1	i	0.93
Cc1cccc(Cn2cccc(S(=O)(=O)N3CCC(C)CC3)c2=O)c1	i	-0.03
COc1ccc(-c2noc(CSc3ccc(-c4ccccc4)nn3)n2)c(OC)c1	i	0.57
COc1ccc(NC(=O)c2cn(-c3cc(-c4noc(C)n4)ccc3C)nc2C)cc1	i	0.19
O=C(NC1CC1)c1cc(-c2cccnc2)on1	i	-1.4
CC(C)c1nc(N(C)S(C)(=O)=O)nc(-c2ccc(F)cc2)c1C=CC(O)CC(O)CC(=O)O (stereo not given)	i	0.6
O=C(CN1C(=O)C2CCCC2=Nc2ccccc21)Nc1cc(F)ccc1F (stereo not given)	i	-0.36
CCS(=O)(=O)c1ncc(Cl)c(C(=O)Nc2sc3c(c2C(=O)OC)CCCC3)n1	i	-0.76
Cc1cccc(C2CCCN2S(=O)(=O)c2cnc[nH]2)c1 (stereo not given)	i	-0.06
O=S(=O)(NCC1CCCO1)c1ccc(-c2ccno2)s1 (stereo not given)	i	-1.2
Cc1cccc(-c2noc(CSc3ccc(-c4ccccc4)nn3)n2)c1	i	0.25
O=C(Cc1csc2ccccc12)N1CCN(C(=O)Nc2ccc3c(c2)OCCO3)CC1	i	-0.71
COc1ccc2c(c1)CCc1c(C(=O)Nc3cc(Cl)ccc3O)noc1-2	i	0.59
CCOC(=O)c1ccccc1NC(=O)CSc1nccn1-c1cc(C)ccc1OC	i	0.39
COC(=O)/C=C/c1cccc(N(Cc2ccc(-c3ccc(N(C)C)cc3)cc2)C(=O)C2CCCCC2)c1	i	0.94
CCCn1c(=O)c2c(C(=O)NC3CC3)cc(=O)n(CCC)c2n(C)c1=O	i	-1.1
COCCn1ccc2c(OCC(=O)N(C(C)C)C(C)C)cccc2c1=O	i	-0.69
Cc1[nH]c(C)c(S(=O)(=O)NCc2cccs2)c1-c1nc(C2CC2)no1	i	-0.27
CCC(C)NC(=O)c1cc2c(n(-c3ccc(F)cc3)c1=O)CCCC2=O (stereo not given)	i	-1.3
COc1ccc(OC)c(NC(=O)C2CCC(=O)N2S(=O)(=O)c2ccc(F)cc2)c1 (stereo not given)	i	-1.2
Cc1nc(-c2ccc(F)cc2)sc1CCNC(=O)COc1ccccc1F	i	-1.8
CNC(=O)c1cn2c3c(cccc3c1=O)CC2	i	-1.2
C=CCN(CC=C)C(=O)c1ccc(N2CCNCC2)c(NS(=O)(=O)c2ccc(Br)cc2)c1	i	1.1
CC(=O)N1CC(C)(C)c2cc(S(=O)(=O)NCC3CCCO3)ccc21 (stereo not given)	i	0.15
Cc1nc(-c2cccc(F)c2)sc1CCNC(=O)COc1ccccc1F	i	-1.7
O=C(Cn1cc(C(=O)c2ccncc2)c(=O)c2cc(Cl)ccc21)NC1CCCCC1	i	-2.1

# (next part)
Molecule	Anaer choline gr	Anaer choline gr early
CCCCn1nc2c(S(=O)(=O)N3CCCC3)cccn2c1=O	i	-1
Cc1sc2c(c1C)CSC(C(=O)NCCc1c[nH]c3ccccc13)=C2	i	0.88
CN(C)CCNC(=O)c1ccc(CN2CC(=O)N3CSCC3C2=O)cc1 (stereo not given)	i	0.63
O=C(COc1ccccc1)Oc1cccc(-n2cnnn2)c1	i	-0.26
CCCN1CCN(S(=O)(=O)c2cc(-c3nnc(C4CCC4)o3)co2)CC1	i	1.1
O=C(Nc1ccc(F)cc1F)C1CCCN(c2nc3cccnc3s2)C1 (stereo not given)	i	-0.25
O=C(NCc1c(-c2ccc(F)cc2)nc2n1CCS2)c1ccccc1Br	i	0.38
CO[C@@H]1[C@@H](OC(N)=O)[C@@H](O)[C@H](Oc2ccc3c(O)c(NC(=O)c4ccc(O)c(CC=C(C)C)c4)c(=O)oc3c2C)OC1(C)C	i	-2.6
CCc1ccc(NC(=O)C2CCN(c3ncnc4onc(-c5ccc(F)cc5)c34)CC2)cc1	i	0.42
CCC(=O)NCC1(N2CCOCC2)CCCCC1	i	0.66
COCCNC(=O)c1nnc(-c2ccc(S(=O)(=O)N(C)C)cc2)o1	i	-1.8
CCn1c(=O)c(-c2noc(C(=O)NCc3ccccn3)n2)nn(-c2ccccc2)c1=O	i	0.09
Cc1ccccc1-c1ncccc1C(=O)N1CCC(C(=O)N2CCN(C3CCCCC3)CC2)CC1	i	-0.23
COC(=O)c1c(NC(C)=O)c2c(C)c(C)sc2n1CC(=O)N(C)c1ccccc1	i	-0.27
Cc1cc(=O)[nH]c2nnc(SCCC(C)C)n12	i	0.02
COC(=O)c1cc(OCc2ccc(F)cc2)c2cc(F)ccc2n1	i	-2.3
CCc1c(C)nc(-n2nc(C)cc2NC(=O)c2ccc(OC(C)C)cc2)[nH]c1=O	i	-1.2
Cc1cc(C2CCCN2Cc2ccc(OC(C)C)cc2)no1 (stereo not given)	i	-1.3
Cc1ccc(NC(=O)Cn2ncn3nc4c(c3c2=O)CCCC4)cc1	i	0.52
O=C(NC1CCCCC1)c1cccc(-n2cnnc2)n1	i	-0.3
CC(=O)N1c2ccc(S(=O)(=O)NCC3CCC(C(=O)N4CCC(C)CC4)CC3)cc2CC1C (stereo not given)	i	-0.1
Cc1ccc2nc(CNC(=O)Cn3cnc(S(=O)(=O)N4CCCC4)c3)[nH]c2c1	i	-1.4
Cc1ccc(S(=O)(=O)Cc2noc(CCC(=O)O)n2)cc1	i	0.8
Cc1cn2c(=O)cc(CN(Cc3ccc(C(C)C)cc3)CC(C)C)nc2s1	i	0.51
CCc1ccc(C(=O)N2CCCC(c3cccc(C(=O)N4CCN(c5ccccn5)CC4)c3)C2)cc1 (stereo not given)	i	-1.9
O=C(NCC(=O)N1CCc2ccccc21)c1ccc(-c2noc(C3CCCC3)n2)cc1	i	0.46
COC(=O)c1snc(-c2ccc(F)cc2)c1N	i	-0.67
COc1ccc(N2C(=O)CSC2c2ccncc2)cc1 (stereo not given)	i	0.49
Cc1cc(C2CCCN2C(=O)C2CCCC2)on1 (stereo not given)	i	-0.19
C=C(C)CN1CCN(c2cc(C)nc3c(C)c(-c4ccc(Cl)cc4)nn23)CC1	i	0.42

# 2 consecutive records from above, for reference:
Molecule	Anaer choline gr	Anaer choline gr early
Cc1cc(C2CCCN2C(=O)C2CCCC2)on1 (stereo not given)	i	-0.19
C=C(C)CN1CCN(c2cc(C)nc3c(C)c(-c4ccc(Cl)cc4)nn23)CC1	i	0.42

# Following part:
Molecule	Anaer choline gr	Anaer choline gr early
Nc1ccn([C@@H]2O[C@H](CO)[C@@H](O)[C@@H]2O)c(=O)n1	i	-1.3
COc1ccccc1-c1c(C)nn2c(SCC(=O)NCCN(C)C)cc(C)nc12	i	-1.7
CCc1ccc(OC(C)C(=O)NCCc2csc(-c3ccccc3)n2)cc1 (stereo not given)	i	0.75
CCCCC(=O)N1CCCN(c2cc(=O)n(C(C)C)c(=O)n2C(C)C)CC1	i	-1.7
COc1cccc(NC(=O)C2Oc3ccccc3NC2=O)c1 (stereo not given)	i	-1.6
Cc1ccc(Cn2c(SCc3cccc(C)c3)nc3cccnc32)cc1	i	2.6
NC(Sc1nc(=O)n(Cc2ccccc2)c2c1CCC2)c1cccc2ccccc12 (stereo not given)	i	0.58
CCc1ccc(C2CC(=O)Nc3c(S(=O)(=O)c4ccccc4)csc32)cc1 (stereo not given)	i	-1.3
CCn1nnc2c(NCCCOC)ncnc21	i	-1.4
CCOc1cc(C2C3=C(CC(c4ccc(OC)c(OC)c4)CC3=O)Nc3onc(C)c32)ccc1O (stereo not given)	i	0.86

# Screens: PubChem, ICCB-Longwood Screening Facility, Harvard Medical School
